MARV entry inh: qHTS for inhibitors of binding or entry into cells for Marburg Virus. AID 540276, 2011. Marburg virus pseudotyped entry inhibition, cell reporter; control for the full effect not named in the record; about a third of the inactives were read at about 46 µM. actives 1.8% (n = 300,000). Potency, µM (titrated, usually from 37.8 µM), without a hit: at the highest dose activity change, negative = inhibition, most hits filed as inhibitors; active = well fitted inhibition curve with a large enough effect; inconclusive = small, poorly fitted or top-dose-only effect, or effect the other way; inactive = flat fitted curve, though single readings scatter; tested in HEK293 cells; about a fifth of its hits are not listed in these tables; note: % is set by controls: 0 for no effect and ±100 for the full control effect; luciferase read-out
RE007 growth inh: qHTS Assay for Inhibitors of the HIV-1 protein Vpr; S. pombe RE007 Vpr strain, BacTiter-Glo ATP luminescence, 24 h; control for the full effect not named in the record; Potency, µM (titrated, usually from 92.2 µM), for the others: at the top dose activity change, negative = less growth; actives 0.21% (n = 360,000); AID 651644, 2012; active = well fitted falling curve with a large enough effect; inconclusive = small, poorly fitted or top-dose-only effect; inactive = no such curve, though single readings can be large or run the other way;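 note: % is set by controls: 0 for no effect and ±100 for the full control effect; nearly all actives have a fitted effect of over 50% in size; the assay follows cell death caused by Vpr and the record does not say whether a fall means rescue or toxicity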
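Fission yeast strain RE007, carrying one chromosomally integrated HIV-1 vpr copy, was seeded at OD 0.01 in PMG+AL medium with 23 nL pinned compound. After 24 h at 30 °C and 99% humidity, viability was read by BacTiter-Glo luminescence.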
SARS PLpro yeast: qHTS of Yeast-based Assay for SARS-CoV PLP; S. cerevisiae expressing SARS-CoV PLpro, growth rescue; control for the full effect not named in the record; Potency, µM (series often up to 32.9 µM), without a hit: top-dose activity, positive = growth rescue; actives 0.19% (n = 330,000); AID 485353, 2010; active means well fitted rising curve with a large enough effect; inconclusive means small, poorly fitted or top-dose-only effect; inactive means no such curve, though single readings can be large or run the other way; note: 0% is about no effect; nearly all actives have a fitted effect of over 55% in size; growth read by luminescence after 48 h
Cruzain Triton: qHTS Assay for Promiscuous and Specific Inhibitors of Cruzain (with detergent); actives 0.43% (n = 200,000); purified cruzain, Z-FR-AMC fluorescence, 0.01% Triton; Cruzipain (Trypanosoma cruzi), P25779; Potency, µM, without a hit: max response, negative = inhibition, actives largely listed as inhibitors; AID 1478, 2009;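 note: plate controls were neutral wells for no effect and buffer without enzyme for full effect; nearly all actives have a fitted effect of over 40% in size; top concentration of the series not given in the record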
Target sequence (P25779 123-467 limits assumed): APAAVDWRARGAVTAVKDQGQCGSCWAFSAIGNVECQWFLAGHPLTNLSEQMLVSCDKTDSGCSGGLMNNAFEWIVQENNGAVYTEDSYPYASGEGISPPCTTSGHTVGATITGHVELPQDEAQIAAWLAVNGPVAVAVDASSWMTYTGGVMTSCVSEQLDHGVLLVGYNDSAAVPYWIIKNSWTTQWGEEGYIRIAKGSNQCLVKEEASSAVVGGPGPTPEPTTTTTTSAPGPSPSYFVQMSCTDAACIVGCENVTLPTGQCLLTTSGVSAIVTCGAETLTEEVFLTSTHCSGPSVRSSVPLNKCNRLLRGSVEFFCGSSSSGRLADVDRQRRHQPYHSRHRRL
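Cruzain (1.5 nM) preincubated 15 min at RT with compound in 100 mM sodium acetate pH 5.5, 5 mM DTT, 0.01% Triton X-100. Reaction started with 2 uM Z-FR-AMC; AMC fluorescence (ex 360/em 450 nm) change over 60 s gave rate.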
Lassa entry inh: qHTS for Inhibitors of binding or entry into cells for Lassa Virus. Potency, µM (titrated, usually from 37.9 µM), without a hit: at the top dose activity change, negative = inhibition, hits mostly inhibitors. actives 1.2% (n = 300,000). AID 540256, 2011. Lassa virus pseudotype entry inhibition, cell reporter; control for the full effect not named in the record; active means well fitted inhibition curve with a large enough effect; inconclusive means small, poorly fitted or top-dose-only effect, or effect the other way; inactive means flat fitted curve, though single readings scatter; tested in HEK293 cells; note: % is set by controls: 0 for no effect and ±100 for the full control effect; nearly all actives have a fitted effect of over 50% in size; luciferase read-out
2A StopGo: High Throughput Screening for Foot and Mouth Disease Virus Antivirals. human cells with a luciferase reporter of 2A StopGo recoding; control for the full effect not named in the record. Potency, µM (titrated, usually from 57.9 µM), without a hit: at the top dose signal change, negative = less light. actives 1.2% (n = 410,000). AID 1159524, 2015; active = well fitted falling curve with a large enough effect; inconclusive = small, poorly fitted or top-dose-only effect; inactive = no such curve, though single readings can be large or run the other way; tested in HEK293T cells; note: % is set by controls: 0 for no effect and ±100 for the full control effect; nearly all actives have a fitted effect of over 45% in size; luciferase light after 4 h
Cruzain noTriton: qHTS Assay for Promiscuous and Specific Inhibitors of Cruzain (without detergent). Cruzipain (Trypanosoma cruzi), P25779. purified cruzain, Z-FR-AMC fluorescence, no detergent. actives 2.3% (n = 200,000). Potency, µM, for inactives: max response, negative = inhibition, usual class: inhibitors;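 note: plate controls were enzyme without inhibitor for no effect and buffer without enzyme for full effect; nearly all actives have a fitted effect of over 40% in size; top concentration of the series not given in the record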
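Detergent-free condition (0.00005% Triton X-100) in acetate buffer pH 5.5 with DTT. 1.5 nM enzyme and compound were pre-mixed 15 min, then 2 uM Z-FR-AMC substrate added; reaction progress from fluorescence change between first and third reads (60 s).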
NS1 inh: qHTS Assay for Inhibitors of Influenza NS1 Protein Function; S. cerevisiae slowed by influenza A NS1, growth recovery by OD600; Potency, µM (series often up to 46.1 µM), for inactives: at the top dose activity, positive = more growth; actives 0.4% (n = 270,000); active means well fitted rising curve with a large enough effect; inconclusive means small, poorly fitted or top-dose-only effect; inactive means no such curve, though single readings can be large or run the other way; note: nearly all actives have a fitted effect of over 50% in size
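Read-out: OD600 growth recovery of NS1-expressing budding yeast. Cells grown overnight at 30C in -URA glucose medium, washed, resuspended and diluted 1:100 in 2% galactose assay medium, pH 6.0. Same strain lacking NS1 served as positive control.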
Active calls of the source: *; & = joins results of further samples; [ ] = dose if it differs, or a comment. Unless noted, calls come from the whole dose curve; as a rule, active = well fitted curve in the direction sought with a large enough effect; inconclusive = small, poorly fitted or top-dose-only effect, or another doubt; inactive = no such curve, though single readings can be large; an effect the other way counts as inactive or inconclusive. Potency is the fitted concentration of half-maximal effect. Hits appear at their usual frequency; any-hit rate near 4.5%.

Screening COc1ccc(NC(=O)CSc2nc(C)cc(C)c2C(=O)Nc2cccc(C)c2)cc1 returned MARV entry inh -25%[46.1 µM], Cruzain Triton -3.8%, Lassa entry inh -9%[46.1 µM], 2A StopGo 0% and Cruzain noTriton 18%.
For O=C(NCCS(=O)(=O)N1CCN(c2ccccc2F)CC1)c1ccco1 the results were MARV entry inh 20%, RE007 growth inh 3%, SARS PLpro yeast 1%, Lassa entry inh 17% and 2A StopGo -6%.
`Cc1ccc2c(c1)CCCN2C(=O)c1c(C)noc1C` gave MARV entry inh 6%, RE007 growth inh 5%, SARS PLpro yeast -4%, Cruzain Triton 1.2%, Lassa entry inh -1%, 2A StopGo 10%, Cruzain noTriton -7% and NS1 inh -3%.
`Cc1ccc(S(=O)(=O)c2nc(-c3cccs3)oc2NCCCN(C)C)cc1` gave MARV entry inh inconclusive, RE007 growth inh 36%, SARS PLpro yeast 9%, Cruzain Triton -2.0%, Lassa entry inh -17%, 2A StopGo 1%, Cruzain noTriton -2% and NS1 inh 11%.
Screening O=C(COC(=O)C1CCN(S(=O)(=O)c2cccc3cccnc23)CC1)c1ccc(F)cc1 returned MARV entry inh inconclusive, RE007 growth inh 4%, SARS PLpro yeast 0%, Cruzain Triton -4.1%, Lassa entry inh 4%, 2A StopGo -10%, Cruzain noTriton 3% and NS1 inh 16%.
Screening COc1ccccc1C(OC(=O)c1cccs1)C(=O)NCC1CCCO1 (configuration not stated) returned MARV entry inh -3%, RE007 growth inh -8%, SARS PLpro yeast -1%, Cruzain Triton 7.8%, Lassa entry inh -5%, Cruzain noTriton -9% and NS1 inh 3%.
`Cc1ccc(S(=O)(=O)N2CCCCC2)cc1NC(=O)C1CCC1` gave MARV entry inh inconclusive, RE007 growth inh 28%, SARS PLpro yeast -2%, Lassa entry inh 1% and 2A StopGo -4%.
For Cc1ccoc1C(=O)NCCNC(=O)c1occc1C the results were MARV entry inh 3%[46.1 µM], RE007 growth inh -23%, SARS PLpro yeast 0%, Lassa entry inh 6% and 2A StopGo 15%.
Cc1ccc2nc(-c3ccc(SCC(=O)Nc4nnc(C)s4)nc3)[nH]c2c1 was read as MARV entry inh inconclusive, RE007 growth inh -17%, SARS PLpro yeast 8%, Cruzain Triton -5.6%, Lassa entry inh inconclusive, 2A StopGo 36%[activator], Cruzain noTriton inconclusive and NS1 inh 25%.
COCCNC(=O)C(c1ccc(C)cc1)N(C(=O)CCC(=O)Nc1ccccn1)c1ccc(C)cc1 (configuration not stated) was read as MARV entry inh 6%[46.1 µM], RE007 growth inh 22%, SARS PLpro yeast 0%, Lassa entry inh -2%, 2A StopGo -13% and NS1 inh 9%.
Screening N#Cc1c(/N=C/c2ccco2)oc(-c2ccccc2)c1-c1ccccc1 returned MARV entry inh inconclusive, RE007 growth inh -12%, SARS PLpro yeast 0%, Cruzain Triton -15%, Lassa entry inh -1%, 2A StopGo -17%, Cruzain noTriton -6% and NS1 inh -24%.
Screening CC(C)Oc1cc(-n2c(=S)[nH]c3ccccc3c2=O)c(Cl)cc1Cl returned MARV entry inh -24%, RE007 growth inh -1%, SARS PLpro yeast -8%, Cruzain Triton -9.5%, Lassa entry inh inconclusive, 2A StopGo 0%, Cruzain noTriton 1% and NS1 inh -29%.
`O=C(O)C1C2C=CC(C2)C1C(=O)Nc1ccc(C(=O)N2CCCCC2)cc1` (configuration not stated) gave MARV entry inh 22%, RE007 growth inh -6%, SARS PLpro yeast 0%, Cruzain Triton 4.1%, Lassa entry inh -3%, 2A StopGo -17%, Cruzain noTriton -2% and NS1 inh -1%.
`CN(C(=O)CC1C(=O)NCCN1Cc1ccc(F)cc1Cl)C1CCCCC1` (configuration not stated) gave RE007 growth inh 1%, SARS PLpro yeast inconclusive, 2A StopGo -12% and NS1 inh -1%.
`O=C(N=C1N=C2C=CC=CN2Cc2ccccc21)c1ccc(S(=O)(=O)N2CCCC2)cc1` gave MARV entry inh 9%[46.1 µM], RE007 growth inh 3%, SARS PLpro yeast -1%, Lassa entry inh -3%, 2A StopGo 15% and NS1 inh 6%.
For CCOC(=O)c1cc(N)cc([N+](=O)[O-])c1 the results were MARV entry inh 0%, RE007 growth inh 1%, SARS PLpro yeast 15%, Cruzain Triton -3.9%, Lassa entry inh 5%, 2A StopGo 2%, Cruzain noTriton -5% and NS1 inh 12%.
CC1CCCCN1C(=O)CN1CCC(c2nc3ccc(Cl)cc3[nH]2)CC1 (configuration not stated) was read as RE007 growth inh 1%, SARS PLpro yeast 0%, 2A StopGo 5% and NS1 inh 3%.
Cc1nc2sc(C(c3ccc(Cl)cc3)N3CC(C)OC(C)C3)c(O)n2n1 (configuration not stated) was read as MARV entry inh 3%, RE007 growth inh 10%, SARS PLpro yeast -3%, Cruzain Triton 2.3%, Lassa entry inh -19%, 2A StopGo 51%[activator], Cruzain noTriton inconclusive and NS1 inh inconclusive.
Screening COc1ccc(/C=C(/C#N)S(=O)(=O)c2ccc(C)cc2)cc1 returned MARV entry inh 21%, RE007 growth inh 4%, SARS PLpro yeast 4%, Cruzain Triton -3.1%, Lassa entry inh inconclusive, 2A StopGo -16%, Cruzain noTriton -1% and NS1 inh 1%.
C=CCOc1c(CNc2ncn[nH]2)cccc1OCC was read as MARV entry inh -25%, RE007 growth inh 0%, SARS PLpro yeast 1%, Cruzain Triton -1.6%, Lassa entry inh inconclusive, 2A StopGo 1%, Cruzain noTriton -3% and NS1 inh 1%.
Screening COc1cc(CN(C)CCc2ccccc2)ccc1OCc1ccccc1 returned MARV entry inh 18µM*, RE007 growth inh -13%, SARS PLpro yeast 0%, Cruzain Triton 5.2%, Lassa entry inh -28%, 2A StopGo -21%, Cruzain noTriton 6% and NS1 inh -58%.
`Cc1cc(C)n(-c2nc3cc(Cl)c(Cl)cc3nc2Nc2c(C)cccc2C)n1` gave MARV entry inh 15%[46.1 µM], Cruzain Triton 0.3%, Lassa entry inh 12%[46.1 µM], 2A StopGo -6% and Cruzain noTriton 2%.
For Cc1ccc(NS(=O)(=O)c2cccc(C(=O)N/N=C/c3c(C)nn(-c4ccccc4)c3N3CCCC3)c2)c(C)c1 the results were MARV entry inh -44%, RE007 growth inh 1%, SARS PLpro yeast -4%, Cruzain Triton -2.1%, Lassa entry inh inconclusive, 2A StopGo -17%, Cruzain noTriton 32µM* and NS1 inh inconclusive.
O=C(/C=C/c1cccs1)Nc1nncs1 was read as RE007 growth inh -8%, SARS PLpro yeast -2%, 2A StopGo 59%[activator] and NS1 inh -6%.
For O=C(c1cccs1)N1CCN(S(=O)(=O)Cc2ccccc2)CC1 the results were MARV entry inh 29%, RE007 growth inh -15%, SARS PLpro yeast 13%, Cruzain Triton -0.1%, Lassa entry inh 0%, 2A StopGo -16%, Cruzain noTriton 7% and NS1 inh 1%.
Screening CCOc1ccc(-c2cc(NC(=O)Nc3ccc(Cl)cc3)c(C(=O)OC)s2)cc1 returned MARV entry inh 18%[46.1 µM], Cruzain Triton -0.8%, Lassa entry inh inconclusive, 2A StopGo 8% and Cruzain noTriton -6%.
`Cc1ccc(S(=O)(=O)c2cc3cc(C(=O)O)ccc3oc2=O)cc1` gave MARV entry inh 6%[46.1 µM], Cruzain Triton 0.4%, Lassa entry inh 13%[46.1 µM], 2A StopGo 0% and Cruzain noTriton 29%.
`COc1ccc(NC(=O)C(C)N(c2ccc(C)cc2)S(C)(=O)=O)cc1` (configuration not stated) gave MARV entry inh 2%, RE007 growth inh -13%, SARS PLpro yeast 8%, Cruzain Triton -1.4%, Lassa entry inh -8%, 2A StopGo 6%, Cruzain noTriton 1% and NS1 inh 0%.
`CN(/N=C/c1ccc(O)cc1O)c1nc(-c2ccccc2)cc(-c2ccccc2)n1` gave MARV entry inh inconclusive, RE007 growth inh 2%, SARS PLpro yeast 13%, Cruzain Triton 0.2%, Lassa entry inh 3%, 2A StopGo -4%, Cruzain noTriton -7% and NS1 inh 7%.
`O=C(Nc1cnn(Cc2ccc(Cl)c(Cl)c2)c1)c1nc2ncccn2n1` gave MARV entry inh -24%, RE007 growth inh -13%, SARS PLpro yeast -6%, Cruzain Triton 3.8%, Lassa entry inh inconclusive, 2A StopGo -21%, Cruzain noTriton -5% and NS1 inh 0%.
For CCCCn1c(SCC(=O)N2CCCCC2)nc2cc(S(N)(=O)=O)ccc21 the results were MARV entry inh -1%, RE007 growth inh 2%, SARS PLpro yeast 5%, Cruzain Triton -6.2%, Lassa entry inh -27%, 2A StopGo 4%, Cruzain noTriton -1% and NS1 inh -7%.
For CN(C)c1ccc(/C=C/C(=O)c2ccc(C(C)(C)C)cc2)cc1[N+](=O)[O-] the results were MARV entry inh -61%, RE007 growth inh 1%, SARS PLpro yeast -7%, Cruzain Triton -6.3%, Lassa entry inh inconclusive, 2A StopGo inconclusive, Cruzain noTriton inconclusive and NS1 inh 13µM*.
`CCCCn1c(=O)n(Cc2cccc(F)c2)c(=O)c2c1ncn2Cc1ccco1` gave MARV entry inh inconclusive, RE007 growth inh -2%, SARS PLpro yeast -29%, Cruzain Triton -5.0%, Lassa entry inh -10%, 2A StopGo inconclusive, Cruzain noTriton 0% and NS1 inh -34%.
`CC1=C(C#N)C(NC(=O)c2cccc(Cl)c2)(C(F)(F)F)C(=O)N1` (configuration not stated) gave MARV entry inh inconclusive, RE007 growth inh -20%, SARS PLpro yeast 2%, Cruzain Triton -1.8%&2.7%, Lassa entry inh 15%[46.1 µM], 2A StopGo -6%&-2%, Cruzain noTriton 1%&15% and NS1 inh -1%.
For N#CC(C#N)=NNc1ccc(-n2ccc(C(F)(F)F)n2)cc1 the results were MARV entry inh 3.2µM*, RE007 growth inh 0%, SARS PLpro yeast -20%, Lassa entry inh inconclusive, 2A StopGo inconclusive and NS1 inh -60%.
Screening COc1ccc(CC2(CO)CCN(Cc3cccn3-c3ccccn3)CC2)cc1 returned MARV entry inh inconclusive, RE007 growth inh -8%, SARS PLpro yeast 0%, Lassa entry inh 0%, 2A StopGo -7% and NS1 inh 0%.
